Source: PubChem (several laboratories)
FPR ligand: human FPR ligand, with FPRL1 counter-screen | FPR-expressing cells, fluorescent ligand binding, flow cytometry | inhibition, %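 (tested at 6.7 µM)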 | AID 440 | P21462 | hit rate 0.74% among 24,000;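 note: 0% = buffer wells and 100% = receptor blocker peptide wells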
Target sequence (P21462 whole entry, looked up): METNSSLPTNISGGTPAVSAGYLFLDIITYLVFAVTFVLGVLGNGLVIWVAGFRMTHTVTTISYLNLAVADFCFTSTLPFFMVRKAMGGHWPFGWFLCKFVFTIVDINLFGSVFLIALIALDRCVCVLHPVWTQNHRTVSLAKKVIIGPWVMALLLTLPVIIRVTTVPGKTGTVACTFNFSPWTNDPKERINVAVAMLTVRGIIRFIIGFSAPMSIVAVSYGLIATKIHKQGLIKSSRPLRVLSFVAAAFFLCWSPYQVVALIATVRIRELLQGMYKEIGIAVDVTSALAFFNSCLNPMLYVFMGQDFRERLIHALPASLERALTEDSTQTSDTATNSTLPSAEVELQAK
FPRL1 binder: binds the human formylpeptide receptor-like-1 FPRL1; P25090; FPRL1-expressing cells, fluorescent ligand binding inhibition, flow cytometry; inhibition, %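 (tested at 6.7 µM)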; hit rate 0.3% among 24,000;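 note: 0% = buffer alone and 100% = receptor blocker peptide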
Target sequence (P25090 whole entry, looked up): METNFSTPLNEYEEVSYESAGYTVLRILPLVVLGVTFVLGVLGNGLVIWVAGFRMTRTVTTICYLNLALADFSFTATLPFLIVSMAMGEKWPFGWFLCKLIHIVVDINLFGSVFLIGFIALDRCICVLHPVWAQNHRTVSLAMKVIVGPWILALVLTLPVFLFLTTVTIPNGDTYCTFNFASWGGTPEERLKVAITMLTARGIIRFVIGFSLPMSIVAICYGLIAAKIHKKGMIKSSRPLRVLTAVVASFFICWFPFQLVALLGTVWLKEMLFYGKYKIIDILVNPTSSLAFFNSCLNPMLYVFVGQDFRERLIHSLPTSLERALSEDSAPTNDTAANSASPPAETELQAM
VCAM-1 inhibition: suppression of endothelial VCAM-1 upregulation – cell-based, plate reader, pooled HUVEC, TNFa stimulus (AID 454). HUVEC TNFa-induced VCAM-1 surface immunofluorescence, plate reader; numbers were filed only for top-ranked candidate wells. inhibition, % at 5 µM. hit rate 0.2% among 10,000;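 active = compound among top-ranked inhibitors of TNF-induced VCAM-1 adhesion protein staining, with the hit upheld by image or statistical review; inactive = the rest, including hits rejected on review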;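 note: 0% = TNFa with vehicle and 100% = cells without TNFa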
VCAM-1 down imaging: inhibitors of TNFa-induced VCAM-1 surface display, imaging, high-content imaging, pooled HUVEC, TNFa stimulus (AID 456) | inhibition, % at 5 µM, or IC50 in µM where a hit was titrated | HUVEC TNFa-induced VCAM-1 surface expression, immunofluorescence imaging; numbers were filed only for top-ranked candidate wells | hit rate 0.2% among 10,000;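 active = top tenth filtered wells with inhibition above zero that passed visual or statistical confirmation; inactive = the rest, including hits rejected on review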;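 note: 0% = stimulated vehicle wells and 100% = unstimulated cells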
VCAM-1 up imaging: enhancers of VCAM-1 display on endothelial cells, imaging, high-content imaging, pooled HUVEC, TNFa stimulus (AID 457); Pooled HUVEC, TNFa-induced VCAM-1 immunofluorescence imaging; hits of this screen are not shown here; calls only; hit rate 0.2% among 10,000;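 active = a top-ranked rise in VCAM-1 staining upheld on image or statistical review; inactive = the rest, including candidates rejected on review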;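 note: compounds tested at 5 µM in the well; cells exposed to compound for 24 hours before fixing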
Active calls of the source: *; i = inactive; . = no result given.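 Rule for the calls, unless noted: active = mean above 30%; inconclusive = self-fluorescent; inactive = the rest.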

SMILES | FPR ligand | FPRL1 binder | VCAM-1 inhibition | VCAM-1 down imaging | VCAM-1 up imaging
Cn1nnnc1SCC1=C(C(=O)O)N2C(=O)[C@@H](NC(=O)[C@H](O)c3ccccc3)[C@H]2SC1 | 8.6 | -0.1 | i | i | i
COC(=O)C(C)Sc1nnc2n(-c3cccc(C)c3)c(=O)c3c4c(sc3n12)CCCC4 (configuration not stated) | -2.7 | 1.1 | i | i | i
CCCCCn1c(SCc2ccncc2)nc2cc(C(=O)NCc3ccco3)ccc2c1=O | -2.5 | -4.7 | . | . | .
O=C(NCc1n[nH]c(=S)n1-c1ccccc1)c1ccco1 | -4.4 | 10.0 | . | . | .
CCOC(=O)c1c(C)c(C(=O)NC2CCCCC2)c(C)n1CC | -4.3 | 0.6 | . | . | .
COCCn1c(=S)[nH]c2ccc(N(C)C)cc2c1=O | 15.5 | -0.6 | . | . | .
C=CCn1c(SCC(=O)c2ccccc2)nnc1-c1ccc2c(c1)OCO2 | -1.4 | 4.6 | i | i | i
O=C1CCCc2c1cc(C(=O)NC1CCSC1=O)c(=O)n2-c1ccccc1 (configuration not stated) | -3.6 | -9.5 | . | . | .
Cc1ccccc1-c1nc(CN2CCC(C(=O)O)CC2)c(C)o1 | -5.5 | -4.2 | . | . | .
Cc1nc2ccc(S(=O)(=O)NCC(=O)N3CCc4ccccc43)cc2s1 | 1.6 | 2.0 | . | . | .
N#Cc1c2n(c(=O)[nH]c1=O)CCCCC2 | -3.8 | 9.0 | i | i | i
COc1ccc(C2C(C(C)=O)=C(C)N=c3s/c(=C\c4ccc5c(c4)OCO5)c(=O)n32)c(OC)c1 (configuration not stated) | 1.9 | 2.8 | i | i | i
Cc1c(N(C)C(=O)C23CC4CC(CC(C4)C2)C3)c(=O)n(-c2ccccc2)n1C | 2.3 | 6.8 | . | . | .
COc1ccccc1NC(=O)CCc1c(C)[nH]c(=O)c(C#N)c1C | -1.1 | 0.2 | . | . | .
Cc1nn(-c2ccc(Cl)cc2)c2sc(C(=O)N3CCN(c4ccccn4)CC3)cc12 | -0.1 | -14.3 | i | i | i
CC(=O)Nc1ccc(S(=O)(=O)N2CCC(N(C)CCC(C)C)CC2)cc1 | -2.2 | 3.0 | . | . | .
CC(C)NC(=O)CCCn1c(=S)[nH]c2cc3c(cc2c1=O)OCO3 | 0.7 | 1.2 | . | . | .
O=C(Cn1ncc2c1-c1ccccc1OC2)N1CCN(Cc2ccc3c(c2)OCO3)CC1 | -0.4 | -2.4 | . | . | .
CCn1c(=O)cc(OCC(=O)NCc2cccnc2)c2ccccc21 | -2.2 | -1.0 | . | . | .
COc1cccc(-n2c(C)nc3c(cnn3-c3ccc(C)cc3)c2=O)c1 | 2.9 | 4.2 | i | i | i
O=C(CCCC1=NS(=O)(=O)c2ccccc2N1)N1CCN(c2ccc(Cl)cc2)CC1 | -2.3 | 2.0 | . | . | .
COc1cc(-c2cc(C(=O)O)c3c(OC)c(OC)c(OC)cc3n2)ccc1O | -2.0 | 0.0 | . | . | .
CCOC(=O)N1CCN(C(=O)c2ccc(-n3c(=S)[nH]c4ccccc4c3=O)cc2)CC1 | 1.3 | 5.9 | . | . | .
COc1ccc(Cl)cc1NC(=O)c1nc2nc(C)cc(C(F)F)n2n1 | 7.7 | 4.0 | . | . | .
O=C(CCNS(=O)(=O)c1cccs1)N1CCc2ccccc2C1 | 0.4 | -2.0 | . | . | .
O=C(Nn1cnnc1)c1cc2c(s1)CCCC2 | 2.0 | 1.2 | i | i | i
CC(=O)Nc1nc2c(c3c1c(=O)oc1ccccc13)CC(C)CC2 (configuration not stated) | 8.3 | -2.9 | i | i | i
O=C(C1CCC1)N1CCc2cc(S(=O)(=O)Nc3ccc4c(c3)OCCO4)ccc21 | 0.8 | -3.9 | . | . | .
Cn1c(=O)oc2cc(S(=O)(=O)N3CCC(C(=O)NCC4COc5ccccc5O4)CC3)ccc21 (configuration not stated) | 31.1* | 19.6 | . | . | .
CCn1ccc(C(=O)Nc2ccc(Cl)cn2)n1 | -2.0 | -2.0 | . | . | .
CN(CCNC(=O)C1CC(=O)N(C2CCCC2)C1)Cc1ccccc1 (configuration not stated) | -2.3 | -0.6 | . | . | .
CCN(CC)CCOC(=O)c1c(C)oc2ccc(O)cc12 | -3.6 | 0.6 | i | i | i
CC1=C(C(=O)OCc2ccccc2)C(c2ccc(C)o2)C2=C(CCCC2=O)N1 (configuration not stated) | 7.0 | 4.1 | i | i | i
O=C1CCCc2c1cc(C(=O)NCCCN1CCOCC1)c(=O)n2-c1ccc(Cl)cc1 | 5.0 | 1.6 | i | i | i
CCOC(=O)Cn1cnc2c(nnn2Cc2ccc(Cl)cc2)c1=O | -2.0 | -4.0 | . | . | .
CCOC(=O)c1[nH]c(C)c(C(=O)NC(C)CC)c1C (configuration not stated) | -0.5 | -2.0 | . | . | .
Cc1cccc(Cn2cnc3c(nnn3Cc3ccc(F)cc3)c2=O)c1 | 4.6 | 4.9 | . | . | .
CCC1(CC)NC(=O)NC1=O | 1.6 | -2.1 | i | i | i
CCOC(=O)c1ccc(NC(=O)Cn2nnc(-c3ccc(C)cc3)n2)cc1 | -4.5 | 3.3 | . | . | .
Cc1oc(-c2ccc(Cl)cc2)nc1CN1CCCC(C(=O)NCCCN2CCOCC2)C1 (configuration not stated) | 2.2 | 3.5 | . | . | .
CCCCN(CC)CCCNC(=O)Cn1nc(Cc2ccncc2)c2ccccc2c1=O | 0.3 | 8.5 | . | . | .
CC(C)(C)n1nnnc1CN1CCN(C2CCCC2)CC1 | -2.7 | -1.0 | i | i | i
Cn1c(C(=O)N2CCN(Cc3ccc4c(c3)OCO4)CC2)cc2c(=O)n(C)c3ccccc3c21 | -3.3 | 1.0 | . | . | .
COc1ccc(N2CCN(c3nc4c(c(=O)[nH]c(=O)n4C)n3CCCc3ccccc3)CC2)cc1 | 3.3 | 0.7 | i | i | i
CN(C)c1ccnc(NCc2ccccc2)c1C#N | 0.9 | -3.2 | i | i | i
O=C(CCN1C(=O)c2ccccc2C1=O)Nc1ccc(F)cc1 | -1.7 | -0.9 | i | i | i
COc1cc(-c2nc(-c3ccncc3)no2)cc(OC)c1OC | 10.9 | -1.1 | i | i | i
CN(Cc1ccccc1)C(=O)CCCn1c(=O)[nH]c2cc(Cl)ccc2c1=O | 2.5 | -3.3 | . | . | .
COc1ccc(-n2c(C)nc3c(cnn3-c3ccc(Cl)cc3)c2=O)cc1 | -1.7 | -8.4 | . | . | .
CC(C)CCNC(=O)Cn1c(NCCC(C)C)nc2c1c(=O)n(C)c(=O)n2C | 3.8 | 2.4 | i | i | i
O=C(Nc1ccccc1C(F)(F)F)c1cc(-c2ccc(O)cc2)on1 | -2.3 | -2.4 | . | . | .
COc1ccc(CCNC(=O)c2cnn3ccccc23)c(OC)c1OC | 3.3 | 4.3 | i | i | i
O=C(O)Cn1cc(C(=O)c2ccco2)c2ccccc21 | -1.2 | 9.1 | i | i | i
Cc1cccc(-n2nnc(C(=O)NCc3ccco3)c2N)c1 | -7.1 | -1.9 | . | . | .
O=C(CS(=O)(=O)c1cn(Cc2cccc(F)c2)c2ccccc12)N1CCOCC1 | -4.2 | -11.1 | . | . | .
O=C(CSc1ncnc2nc[nH]c12)c1ccc(Cl)cc1 | 0.6 | 2.1 | i | i | i
CCOc1ccc(OCC)c(NS(=O)(=O)c2cccc3nsnc23)c1 | 1.4 | -4.8 | . | . | .
CCOc1ccc(/C(O)=C2/C(=O)C(=O)N(CCN(C)C)C2c2ccccc2)cc1Cl (configuration not stated) | -0.3 | -1.8 | . | . | .
COC(=O)c1c(NC(=O)c2ccc(Br)o2)sc(C)c1C | -15.6 | -9.6 | . | . | .
Cn1c(C(=O)N2CCN(c3ccc(F)cc3)CC2)cc2c(=O)n(C)c3ccccc3c21 | -0.6 | -1.9 | . | . | .

Sorted by formula weight (high to low): part of the list above
SMILES | FPR ligand | FPRL1 binder | VCAM-1 inhibition | VCAM-1 down imaging | VCAM-1 up imaging
CCOc1ccc(OCC)c(NS(=O)(=O)c2cccc3nsnc23)c1 | 1.4 | -4.8 | . | . | .
COc1cc(-c2nc(-c3ccncc3)no2)cc(OC)c1OC | 10.9 | -1.1 | i | i | i
O=C(CSc1ncnc2nc[nH]c12)c1ccc(Cl)cc1 | 0.6 | 2.1 | i | i | i

Carrying on.
SMILES | FPR ligand | FPRL1 binder | VCAM-1 inhibition | VCAM-1 down imaging | VCAM-1 up imaging
COc1ccc2c(c1)OC1(C)CC2C(C(=O)c2ccccc2OC)C(=O)N1 (configuration not stated) | 0.1 | -0.9 | . | . | .
C/C(CC(O)(/C=N/O)c1ccccc1)=N\O (configuration not stated) | 7.2 | 0.3 | i | i | i
Nc1nc(-c2ccc(Cl)cc2)cc(C(F)(F)F)n1 | -3.9 | 4.7 | i | i | i
O=C(Nc1nnc(C2CC2)o1)c1ccc(S(=O)(=O)N2CCCc3ccccc32)cc1 | -2.5 | 0.8 | . | . | .
CCCCC(=O)NCCc1ccc(S(N)(=O)=O)cc1 | -2.1 | 3.4 | i | i | i
COc1cc(C(=O)Nc2cccc(-c3nc4cc(C)ccc4o3)c2)cc(OC)c1OC | 1.6 | -3.2 | i | i | i
CCOc1ccccc1CNC(=O)c1cc2occc2n1C | 8.9 | -1.1 | . | . | .
COc1ccc(C)cc1-n1nnnc1SCC(=O)Nc1cc(C)on1 | 1.1 | -7.1 | i | i | i
Cc1nc2ccccc2c(=O)n1NCc1cc(Br)cs1 | 0.1 | -1.4 | . | . | .
CCCC(=O)NCc1ccc2c(c1)cc(C)n2C | 0.3 | 3.3 | . | . | .
CCN(Cc1ccccc1)S(=O)(=O)c1ccc2oc(C(=O)O)c(C)c2c1 | -9.1 | -3.8 | . | . | .
CCN(CC)S(=O)(=O)c1ccc2c(c1)c(=O)c(C(=O)N1CCc3ccccc3C1)cn2C | 0.5 | 0.1 | . | . | .
CC(=O)c1c(C)[nH]c(C(=O)N2CCc3ccccc3C2)c1C | -6.8 | -2.0 | . | . | .
CC(C)Cc1cc(C(=O)Nc2cc(Br)ccc2O)no1 | 3.1 | -1.4 | . | . | .
CC1(C)Cc2c(sc3c2C2=NCCN2C=N3)CS1 | 1.1 | 8.8 | i | i | i
CCOC(=O)c1c(C)[nH]c(C(=O)CSc2nc3ccccc3o2)c1C | 8.6 | -1.3 | i | i | i
COc1ccc(C(=O)c2coc3ccc(O)c(CN4CCCC4)c23)cc1 | -4.5 | -2.7 | . | . | .

By substructure, those above with a Cl atom.
SMILES | FPR ligand | FPRL1 binder | VCAM-1 inhibition | VCAM-1 down imaging | VCAM-1 up imaging
Cc1nn(-c2ccc(Cl)cc2)c2sc(C(=O)N3CCN(c4ccccn4)CC3)cc12 | -0.1 | -14.3 | i | i | i
O=C(CCCC1=NS(=O)(=O)c2ccccc2N1)N1CCN(c2ccc(Cl)cc2)CC1 | -2.3 | 2.0 | . | . | .
COc1ccc(Cl)cc1NC(=O)c1nc2nc(C)cc(C(F)F)n2n1 | 7.7 | 4.0 | . | . | .
CCn1ccc(C(=O)Nc2ccc(Cl)cn2)n1 | -2.0 | -2.0 | . | . | .
O=C1CCCc2c1cc(C(=O)NCCCN1CCOCC1)c(=O)n2-c1ccc(Cl)cc1 | 5.0 | 1.6 | i | i | i
CCOC(=O)Cn1cnc2c(nnn2Cc2ccc(Cl)cc2)c1=O | -2.0 | -4.0 | . | . | .
Cc1oc(-c2ccc(Cl)cc2)nc1CN1CCCC(C(=O)NCCCN2CCOCC2)C1 (configuration not stated) | 2.2 | 3.5 | . | . | .
CN(Cc1ccccc1)C(=O)CCCn1c(=O)[nH]c2cc(Cl)ccc2c1=O | 2.5 | -3.3 | . | . | .
COc1ccc(-n2c(C)nc3c(cnn3-c3ccc(Cl)cc3)c2=O)cc1 | -1.7 | -8.4 | . | . | .
O=C(CSc1ncnc2nc[nH]c12)c1ccc(Cl)cc1 | 0.6 | 2.1 | i | i | i
CCOc1ccc(/C(O)=C2/C(=O)C(=O)N(CCN(C)C)C2c2ccccc2)cc1Cl (configuration not stated) | -0.3 | -1.8 | . | . | .
Nc1nc(-c2ccc(Cl)cc2)cc(C(F)(F)F)n1 | -3.9 | 4.7 | i | i | i

A portion of the library. The share of hits here may be higher or lower than overall.
